High-throughput results as filed in PubChem.
2A StopGo – lowers the luciferase signal of an FMDV 2A StopGo reporter; human cells with a luciferase reporter of 2A StopGo recoding; control for the full effect not named in the record; Potency, µM (titrated, usually from 57.9 µM), inactives show at the highest dose signal change, negative = less light; actives 1.2% (n = 410,000); AID 1159524; active = well fitted falling curve with a large enough effect; inconclusive = small, poorly fitted or top-dose-only effect; inactive = no such curve, though single readings can be large or run the other way; tested in HEK293T cells; note: % is set by controls: 0 for no effect and ±100 for the full control effect; nearly all actives have a fitted effect of over 45% in size; luciferase light after 4 h
RE007 growth inh – less growth of the S. pombe RE007 Vpr strain. S. pombe RE007 Vpr strain, BacTiter-Glo ATP luminescence, 24 h; control for the full effect not named in the record. Potency, µM (titrated, usually from 92.2 µM), for inactives: top-dose activity change, negative = less growth. actives 0.21% (n = 360,000); active = well fitted falling curve with a large enough effect; inconclusive = small, poorly fitted or top-dose-only effect; inactive = no such curve, though single readings can be large or run the other way;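 note: % is set by controls: 0 for no effect and ±100 for the full control effect; nearly all actives have a fitted effect of over 50% in size; the assay follows cell death caused by Vpr and the record does not say whether a fall means rescue or toxicity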
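Fission yeast strain RE007, carrying one chromosomally integrated HIV-1 vpr copy, was seeded at OD 0.01 in PMG+AL medium with 23 nL pinned compound. After 24 h at 30 °C and 99% humidity, viability was read by BacTiter-Glo luminescence.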
SARS PLpro yeast – SARS-CoV PLP inhibition in yeast. S. cerevisiae expressing SARS-CoV PLpro, growth rescue; control for the full effect not named in the record. Potency, µM (highest dose often 32.9 µM), without a hit: at the highest dose activity, positive = growth rescue. actives 0.19% (n = 330,000); note: 0% is about no effect; nearly all actives have a fitted effect of over 55% in size; growth read by luminescence after 48 h
Cruzain noTriton – blocks cruzain activity in detergent-free assay; P25779; purified cruzain, Z-FR-AMC fluorescence, no detergent; Potency, µM, for inactives: max response, negative = inhibition, usual class: inhibitors; actives 2.3% (n = 200,000); active = well fitted curve in the direction sought with a large enough effect; inconclusive = small, poorly fitted or top-dose-only effect, or another doubt; inactive = no such curve, though single readings can be large; an effect the other way counts as inactive or inconclusive;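 note: plate controls were enzyme without inhibitor for no effect and buffer without enzyme for full effect; nearly all actives have a fitted effect of over 40% in size; top concentration of the series not given in the record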
Target sequence (P25779 123-467 limits assumed): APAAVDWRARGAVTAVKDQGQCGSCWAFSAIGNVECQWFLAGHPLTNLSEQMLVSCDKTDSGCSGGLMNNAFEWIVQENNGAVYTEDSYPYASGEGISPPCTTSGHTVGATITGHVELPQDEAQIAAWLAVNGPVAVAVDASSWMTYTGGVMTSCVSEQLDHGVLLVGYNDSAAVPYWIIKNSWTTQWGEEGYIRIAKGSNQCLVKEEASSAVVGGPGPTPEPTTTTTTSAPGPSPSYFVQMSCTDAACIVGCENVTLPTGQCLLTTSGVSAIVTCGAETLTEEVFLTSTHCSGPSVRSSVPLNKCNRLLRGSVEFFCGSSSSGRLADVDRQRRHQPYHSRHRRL
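Purified cruzain at 1.5 nM, pre-incubated 15 min with compound at room temperature in 100 mM sodium acetate pH 5.5, 5 mM DTT, 0.00005% Triton X-100. Reaction started with 2 uM Z-FR-AMC; AMC fluorescence increase over 60 s gives rate.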
NS1 inh – influenza NS1 inhibition; S. cerevisiae slowed by influenza A NS1, growth recovery by OD600; Potency, µM (doses to about 46.1 µM), for the others: at the top dose activity, positive = more growth; actives 0.4% (n = 270,000); AID 2326; note: actives are rising curves; nearly all actives have a fitted effect of over 50% in size
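Growth recovery, yeast-based: influenza A NS1 expressed in S. cerevisiae causes slow growth, and suppressors are detected by OD600. The parent strain without NS1 is used as positive control.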
Lassa entry inh – inhibitors of Lassa virus binding or cell entry; Lassa virus pseudotype entry inhibition, cell reporter; control for the full effect not named in the record; Potency, µM (top dose mostly 37.9 µM), for the others: at the highest dose activity change, negative = inhibition, hits mostly inhibitors; actives 1.2% (n = 300,000); AID 540256; active means well fitted inhibition curve with a large enough effect; inconclusive means small, poorly fitted or top-dose-only effect, or effect the other way; inactive means flat fitted curve, though single readings scatter; tested in HEK293 cells; note: % is set by controls: 0 for no effect and ±100 for the full control effect; nearly all actives have a fitted effect of over 50% in size; luciferase read-out
Cruzain Triton – blocks cruzain activity in presence of Triton detergent; P25779; purified cruzain, Z-FR-AMC fluorescence, 0.01% Triton; Potency, µM, for the others: max response, negative = inhibition, most hits filed as inhibitors; actives 0.43% (n = 200,000); active = well fitted curve in the direction sought with a large enough effect; inconclusive = small, poorly fitted or top-dose-only effect, or another doubt; inactive = no such curve, though single readings can be large; an effect the other way counts as inactive or inconclusive;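 note: plate controls were neutral wells for no effect and buffer without enzyme for full effect; nearly all actives have a fitted effect of over 40% in size; top concentration of the series not given in the record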
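Z-FR-AMC hydrolysis (2 uM substrate) by cruzain (1.5 nM) monitored kinetically at ex 360/em 450 nm after 15 min room-temperature compound exposure; 0.01% Triton X-100, pH 5.5, 5 mM DTT.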
Marburg entry inh – blocks Marburg virus binding to or entry into cells. Marburg virus pseudotyped entry inhibition, cell reporter; control for the full effect not named in the record; about a third of the inactives were read at about 46 µM. Potency, µM (doses to about 37.8 µM), for inactives: at the highest dose activity change, negative = inhibition, hits mostly inhibitors. actives 1.8% (n = 300,000). AID 540276; active = well fitted inhibition curve with a large enough effect; inconclusive = small, poorly fitted or top-dose-only effect, or effect the other way; inactive = flat fitted curve, though single readings scatter; tested in HEK293 cells; about a fifth of its hits are not listed in these tables; note: % is set by controls: 0 for no effect and ±100 for the full control effect; luciferase read-out
* hit, by the source's call; ? = inconclusive; · = no result given; & = joins results of further samples; [ ] = dose if it differs, or a comment. Unless noted, calls come from the whole dose curve; as a rule, active means well fitted rising curve with a large enough effect; inconclusive means small, poorly fitted or top-dose-only effect; inactive means no such curve, though single readings can be large or run the other way. Potency is the fitted concentration of half-maximal effect.

canonical_smiles	2A StopGo	RE007 growth inh	SARS PLpro yeast	Cruzain noTriton	NS1 inh	Lassa entry inh	Cruzain Triton	Marburg entry inh
CC1S/C(=N/N=C/c2ccco2)N(Cc2ccc(F)cc2)C1=O (stereo not given)	2%	0%	-1%	·	-9%	·	·	·
CC(C)(C)c1ccc(-c2noc(-c3ccno3)n2)cc1	27%	-8%	-2%	·	-9%	?	·	?
CC1(C)CC(NS(=O)(=O)c2ccc(C(C)(C)C)cc2)CC(C)(C)N1	32%[activator]	0%	2%	·	0%	-17%[46.1 µM]	·	?
CC(Cc1ccccc1)N1CCCC1=O (stereo not given)	-2%	-3%	·	·	·	19%	·	?
O=C(c1ccc(Cl)c(S(=O)(=O)N2CCOCC2)c1)N1CCCCCC1	16%	-1%	0%	·	12%	-10%[46.1 µM]	·	-17%[46.1 µM]
COc1cccc(C(=O)COC(=O)C(C)N2C(=O)c3ccccc3C2=O)c1 (stereo not given)	8%	6%	2%	4%	-21%	-1%	-2.6%	15%
O=C(Nc1ccccc1)C1=C[C@@H](c2coc3ccccc3c2=O)C[C@@H](OCc2ccc(CO)cc2)O1	6%	1%	-2%	·	4%	·	·	·
CNC(=S)NNC(=O)c1ccc(C(C)(C)C)cc1	21%	49%	-1%	·	-2%	·	·	·
COc1ccccc1C1C(C#N)=C(N)Oc2c1c(-c1ccccc1)nn2-c1ccccc1 (stereo not given)	?	-11%	-18%	-20%	15%	5%	-4.1%	?
O=c1c2ccccc2nc2n1C(CSCc1ccccc1)CS2 (stereo not given)	?	4%	1%	-5%	5%	-25%	-2.6%	?
COc1cc(OC)c(OC)cc1CN(C)CCc1ccccn1	0%	-1%	1%	2%	2%	7%	0.2%	10%
CCN(C(=O)c1ccco1)C1C2CC3CC(C2)CC1C3 (stereo not given)	-10%	-11%	-14%	·	-76%	·	·	·

(more compounds)
canonical_smiles	2A StopGo	RE007 growth inh	SARS PLpro yeast	Cruzain noTriton	NS1 inh	Lassa entry inh	Cruzain Triton	Marburg entry inh
O=C(NCc1ccccc1F)c1ccc2c(c1)OCO2	35%[activator]	6%	-3%	6%	-15%	19%	2.9%	15%
CC(=O)c1ccc(Sc2ccccc2)cc1	17%	-11%	-4%	-5%	12%	0%	-3.2%	1%
O=C(CSc1nnnn1C1CCCCC1)Nc1cccc(NC(=O)c2ccco2)c1	-20%	-21%	-4%	-6%	-39%	?	-2.1%	-9%
CC(C)Nc1nnc(SCC(=O)c2c[nH]c3ccccc23)s1	-12%	40%	-17%	-14%	8%	4%	2.2%	10%
CCOc1ccc(N(CC(=O)Nc2ccccc2CC)S(=O)(=O)c2c(C)noc2C)cc1	-7%	·	·	-1%	·	-22%[46.1 µM]	-4.1%	·
COc1ccc(/C=N/NC(=O)c2cc(=O)[nH]c3ccccc23)cc1OC	-1%	6%	1%	·	·	2%	·	0%
CC(C)c1nc(SCC(=O)NC(=O)NC(C)(C)C)n[nH]1	-14%	-6%	1%	·	?	12%	·	13%
Cc1cc(NC(=O)Cn2nc(C(=O)O)c3ccccc3c2=O)c([N+](=O)[O-])cc1C	17%	-8%	1%	·	-5%	15%[46.1 µM]	·	?
CCCC(=O)c1ccc2c(c1)OCCO2	41%[activator]	-29%	9%	-9%	-1%	-8%	-1.8%	12%
O=C(COc1ccc(Br)cc1)N(Cc1cccs1)C1CCS(=O)(=O)C1 (stereo not given)	6%	-7%	1%	·	0%	·	·	·
O=C1CC(N2CCN(Cc3ccccc3)CC2)C(=O)N1CCc1ccccc1 (stereo not given)	-17%	-5%	-3%	1%	1%	8%	5.7%	-11%
O=C(CSc1ccccc1)N1CCc2c([nH]c3ccccc23)C1c1ccc(F)cc1 (stereo not given)	4%	·	·	?	·	?	1.8%	·

(next part)
canonical_smiles	2A StopGo	RE007 growth inh	SARS PLpro yeast	Cruzain noTriton	NS1 inh	Lassa entry inh	Cruzain Triton	Marburg entry inh
COc1cccc(NC(=O)CN(C)C(=O)c2ccc(-c3cccc(C(F)(F)F)c3)o2)c1	-19%	2%	3%	·	·	-1%	·	0%
COc1cccc(NC(=O)Cn2c(CCC(=O)O)ccc2-c2ccc(Cl)cc2)c1	-2%	32%	1%	·	7%	7%	·	-41%[46.1 µM]
C[N+]1([O-])[C@@H]2Cc3cc4c(cc3[C@@H]1Cc1cc3c(cc12)OCO3)OCO4 (stereo not given in full)	1%	0%	3%	·	5%	·	·	·
CC[C@H](C)[C@H](NC(N)=O)C(=O)NCCc1ccc(OC)c(OC)c1	2%	-9%	2%	·	·	?	·	10%[46.1 µM]
O=C(NC1CC2CCCC(C1)N2Cc1ccccc1)c1cccc(F)c1 (stereo not given)	-9%	-6%	1%	·	5%	·	·	·
COC(=O)CNC(=O)COC(=O)/C=C/c1ccc2ccccc2n1	10%	-13%	0%	·	·	1%	·	0%[46.1 µM]
CC1CCCN(C(=O)Cn2nnc(-c3ccc(S(C)(=O)=O)cc3)n2)C1 (stereo not given)	-11%	-23%	-5%	·	-4%	·	·	·
CSCCNC(=O)c1ccc(OC2CCN(S(=O)(=O)N(C)C)CC2)cc1	-11%	3%	1%	·	4%	·	·	·
Cc1csc2ncc(C(=O)N3CCCc4ccccc43)c(=O)n12	-5%	5%	2%	-1%	4%	·	-8.2%	·
CN(Cc1ccccc1)c1ccc(N2C(=O)CCC2=O)cc1[N+](=O)[O-]	-8%	5%	-3%	·	·	25%	·	8%[46.1 µM]
COc1ccc(CCNc2ncnc3c2[nH]c2cc(OC)c(OC)cc23)cc1OC	?	27%	2%	·	1%	?	·	?
COc1ccc(C(OCC(O)CNCCc2ccccc2)c2ccc(OC)cc2)cc1 (stereo not given)	-22%	4%	1%	·	-5%	?	·	?

A second format for 5 compounds above:
Value order: 2A StopGo, RE007 growth inh, SARS PLpro yeast, Cruzain noTriton, NS1 inh, Lassa entry inh, Cruzain Triton, Marburg entry inh
> CSCCNC(=O)c1ccc(OC2CCN(S(=O)(=O)N(C)C)CC2)cc1
 : -11%, 3%, 1%, ·, 4%, ·, ·, ·
> Cc1csc2ncc(C(=O)N3CCCc4ccccc43)c(=O)n12
 : -5%, 5%, 2%, -1%, 4%, ·, -8.2%, ·
> CN(Cc1ccccc1)c1ccc(N2C(=O)CCC2=O)cc1[N+](=O)[O-]
 : -8%, 5%, -3%, ·, ·, 25%, ·, 8%[46.1 µM]
> COc1ccc(CCNc2ncnc3c2[nH]c2cc(OC)c(OC)cc23)cc1OC
 : ?, 27%, 2%, ·, 1%, ?, ·, ?
> COc1ccc(C(OCC(O)CNCCc2ccccc2)c2ccc(OC)cc2)cc1 (stereo not given)
 : -22%, 4%, 1%, ·, -5%, ?, ·, ?

Next section
canonical_smiles	2A StopGo	RE007 growth inh	SARS PLpro yeast	Cruzain noTriton	NS1 inh	Lassa entry inh	Cruzain Triton	Marburg entry inh
CC(=O)Nc1cc[n+](CC(=O)c2cccc([N+](=O)[O-])c2)cc1	-11%	9%	1%	·	-1%	·	·	·
COc1cccc(-c2noc(C3CCCN(C(=O)CC(C)(C)C)C3)n2)c1 (stereo not given)	5%	-6%	-1%	·	1%	·	·	·
Cc1ccccc1CNC(=O)COc1ccccc1	43%[activator]	-13%	-4%	·	9%	·	·	·
Brc1ccc(NC(c2ccccc2)c2ccncc2)cc1 (stereo not given)	-19%	-13%	-1%	·	-1%	·	·	·
CCCc1nc(SCC(=O)N2CCCc3ccccc32)c2c(=O)n(C)c(=O)n(C)c2n1	-24%	5%	3%	-1%	-178%	·	-13%	1%
CC(C)(C)NC(=O)Cn1nnc(-c2cccs2)n1	11%	7%	0%	1%	-7%	14%	-2.6%	-14%
O=C(O)CCCCCCC1C(=O)NC(=O)N1CCC(O)C1CCCCC1 (stereo not given)	-2%	8%	7%	-4%	7%	0%	-3.5%	4%
Cn1c(SCc2c(Cl)cccc2Cl)nnc1-c1cccs1	42%[activator]	-24%	-4%	1%	-61%	3%	1.8%	28%
CNS(=O)(=O)c1ccc(Oc2ccc(S(=O)(=O)NC)cc2)cc1	?	6%	-3%	14%	-7%	?	5.9%	-21%[46.1 µM]
CC(C)(C)NC(=S)N/N=C/c1c(Cl)cccc1Cl	13%	-27%	0%	·	3%	·	·	·
CC(=O)Nc1ccc(S(=O)(=O)Nc2cccc(-c3csc(C)n3)c2)cc1	8%	5%	1%	·	-1%	-20%[46.1 µM]	·	?
CCn1c(SCC(=O)Nc2cc(OC)ccc2OC)nc2c(c1=O)SCC2	?	33%	10%	·	-6%	?	·	-8%

Additional records
canonical_smiles	2A StopGo	RE007 growth inh	SARS PLpro yeast	Cruzain noTriton	NS1 inh	Lassa entry inh	Cruzain Triton	Marburg entry inh
N/C(=N\OC(=O)c1cccc(C(F)(F)F)c1)c1cnccn1	32%[activator]	20%	?	·	-3%	·	·	·
CCOc1ccc(Cc2c(C)[nH]c3ccc(C(=O)O)cc3c2=S)cc1	-11%	5%	3%	·	24%	?	·	-5%
N#Cc1nc(/C=C/c2ccccc2)oc1NCCCN1CCOCC1	36%[activator]	-2%	-4%	·	-5%	?	·	12%
CCC(=O)c1ccc(OCC(=O)OCC(=O)N2c3ccccc3CC2C)cc1 (stereo not given)	-14%	-8%	?	·	·	-13%	·	3%[46.1 µM]
CN1C2CCC1CC(OC(=O)c1cc(Cl)cc(Cl)c1)C2 (stereo not given)	?	-14%	-6%	-6%&-12%	-3%&-6%	?	-4.7%&-2.3%	7.1µM*
CC(C)CC(=O)Nc1nc(=S)ss1	0%	-16%	-9%	-2%	4%	0%	-0.6%	1%
Cc1ccc(SCC(=O)Nc2ccc(N3CCN(c4ccccc4)CC3)c(F)c2)cc1	-10%	-17%	11%	10µM*	11%	1%	4.2%	5%
O=C(O)/C=C/C(=O)Nc1ccc(OCc2ccccc2)cc1	46%[activator]	-26%	-7%	·	4%	-21%	·	15%[46.1 µM]
CCN(CC)CCCN(C(=O)c1ccccc1C)c1nc(-c2ccc(OC)cc2)cs1	35%[activator]	-11%	-1%	·	-11%	·	·	·
CCN(CCO)c1ccc(N=Nc2cc(C)[nH]n2)cc1	13µM*	1%	4%	·	-4%	?	·	?
